Rango complex inh – qHTS Assay for Inhibitors of Rango (Ran-regulated importin-beta cargo) - Importin beta complex formation. Importin subunit beta-1 (Homo sapiens), Q14974. Rango CFP/YFP FRET sensor + importin beta, 45 min. Potency, µM (titrated, usually from 92.2 µM), for inactives: top-dose inhibition of complex formation. hit rate 0.031% among 340,000. AID 540263, 2011; active = rising FRET ratio curve, often small or poorly fitted; inconclusive = mostly compound fluorescence or quenching in the first reads; inactive = flat curves in all reads;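 note: potency is the fitted concentration of half-maximal effect; 0% = DMSO wells and 100% = buffer wells lacking importin beta; nearly all actives have a fitted effect of over 15% in size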
Target sequence (Q14974 whole entry, looked up): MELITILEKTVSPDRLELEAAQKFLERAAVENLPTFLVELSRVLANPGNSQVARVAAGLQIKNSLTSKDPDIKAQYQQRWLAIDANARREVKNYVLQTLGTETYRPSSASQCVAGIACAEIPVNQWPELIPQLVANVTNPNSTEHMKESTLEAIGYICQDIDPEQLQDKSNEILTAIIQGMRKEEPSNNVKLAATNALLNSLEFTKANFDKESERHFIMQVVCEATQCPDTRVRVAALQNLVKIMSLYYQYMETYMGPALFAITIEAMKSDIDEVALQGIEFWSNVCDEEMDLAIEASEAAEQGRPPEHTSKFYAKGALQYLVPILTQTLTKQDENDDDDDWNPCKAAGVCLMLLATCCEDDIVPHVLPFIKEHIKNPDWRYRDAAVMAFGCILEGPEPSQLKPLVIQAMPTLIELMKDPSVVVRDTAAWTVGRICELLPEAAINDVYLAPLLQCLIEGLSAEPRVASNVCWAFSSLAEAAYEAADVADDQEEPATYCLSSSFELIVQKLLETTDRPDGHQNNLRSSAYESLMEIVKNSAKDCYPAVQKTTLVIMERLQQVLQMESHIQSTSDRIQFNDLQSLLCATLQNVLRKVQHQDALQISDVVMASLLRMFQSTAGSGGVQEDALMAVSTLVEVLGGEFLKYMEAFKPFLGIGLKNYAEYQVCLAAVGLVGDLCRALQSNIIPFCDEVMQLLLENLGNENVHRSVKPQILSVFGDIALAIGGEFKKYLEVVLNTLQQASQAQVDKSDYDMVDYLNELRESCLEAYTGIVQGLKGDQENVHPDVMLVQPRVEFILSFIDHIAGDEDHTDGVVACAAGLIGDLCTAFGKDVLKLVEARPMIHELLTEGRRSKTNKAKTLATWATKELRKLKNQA
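Inhibition scored from the CFP 486 nm/YFP 530 nm FRET ratio 45 min after adding 0.125 microM importin beta to 50 nM Rango biosensor preincubated 5 min with compound (room temperature, PBS with DTT, Tween-20, BSA). No-importin wells as positive control.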
miR-21 FLuc – qHTS Assay for Modulators of miRNAs and/orActivators of miR-21; HeLa miR-21 FLuc reporter, luciferase, 48 h; Potency, µM (series often up to 38.3 µM), for the others: at the top dose reporter change, positive = more light; 340,000 tested, under 10 active; AID 2288, 2010; active = well fitted rising curve with a large enough effect; inconclusive = small, poorly fitted or top-dose-only effect; inactive = no such curve, though single readings can be large or run the other way;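 note: % of control where 0% means no effect; miR-21 action dims this reporter so a rising signal means less miR-21 action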
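HeLa miR-21-FLuc reporter line, endogenous miR-21; 2000 cells/well in DMEM/10% FBS; compound titration up to ~40uM final, 48 h, 37 degree Celsius; luciferase detection reagent, 15 min lysis, CCD luminescence.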
Rango release inh – qHTS Assay for Inhibitors of RanGTP induced Rango (Ran-regulated importin-beta cargo) - Importin beta complex dissociation; Snurportin-1 (Homo sapiens) + GTP-binding nuclear protein Ran (Homo sapiens) + Importin …; Biochemical FRET Rango-importin beta, RanGTP-induced dissociation; Potency, µM (doses to about 46.1 µM), for the others: at the top dose activity change, negative = inhibition; hit rate 0.071% among 340,000; AID 540253, 2011; active means falling FRET ratio curve, often poorly fitted, with flat reads before Ran was added; inconclusive means other falling curves, or compound fluorescence or quenching; inactive means flat or rising ratio curve;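 note: potency is the fitted concentration of half-maximal effect; % of control where 0% means no effect; nearly all actives have a fitted effect of over 45% in size; -100% = wells without RanGTP and RCC1; the record marks most hits as doubtful in a second field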
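Two FRET readings bracket the reaction: one 5 min after compound meets Rango–importin beta, another 45 min after RanGTP-RCC1 (0.6 uM Ran, 0.2 uM RCC1, 2 mM GTP) is added. Only the second defines inhibition.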
GLA inh pH 4.5 – qHTS Assay for Inhibitors of Human alpha-Galactosidase at pH 4.5 | Alpha-galactosidase A (Homo sapiens), P06280 | purified enzyme, 4-MU-alpha-Gal fluorescence, pH 4.5 | activity change, negative = inhibition, % at 105 µM | 230,000 tested, under 10 active; inconclusive = small, poorly fitted or top-dose-only inhibition, or a rising curve; inactive = flat fitted curve, though single readings scatter; no compound was filed as active;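 note: 0% = full activity with enzyme and -100% = basal without enzyme; dose as in the result columns while the protocol names 77 µM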
Starred values were filed as active, the others as inactive; ? = inconclusive; . = no result given; & = joins results of further samples. This is a subset; the hit share may differ from the screen's.

SMILES	Rango complex inh	miR-21 FLuc	Rango release inh	GLA inh pH 4.5
O=C(Nc1cccnc1)c1cc(Cl)ccc1Cl	1.6%	-6%	6%	.
Cc1ccc2c(C(=O)CN3CCOCC3)c(C)[nH]c2c1	-0.2%	-12%	6%	-5
O=S(=O)(Cc1ccccc1Cl)Nc1ccccn1	-9.1%	-6%	-10%	-8
OCCN(Cc1ccccc1)CC1CC2C=CC1C2 (stereo not given)	-1.6%	-3%	-5%	-9
CN(c1ccc(C(=O)NCc2ccc3c(c2)OCO3)cc1)S(=O)(=O)c1ccccc1	2.6%	-6%	13%	-12
Cc1ccc(CNC(=O)CN2C(=O)NC(C)(c3ccc(Cl)cc3)C2=O)cc1 (stereo not given)	-1.1%	6%	16%	.
COc1cc2c(cc1OC)CN(CC(=O)Nc1ccc3c(c1)OCO3)CC2	-1.5%	-8%	0%	14
O=C(CCCOc1ccc(Cl)cc1Cl)N/N=C/c1cccc([N+](=O)[O-])c1	-2.8%	2%	3%	7
Cc1cccc(NC(=O)c2ccccc2Br)n1	-4.5%	-31%	18%	-2
CCOc1c(Br)cc(C(=O)OCC(=O)N2CCc3ccccc3C2)cc1OC	?	.	-9%	.
CCOC(=O)C1=C(c2ccccc2)NC(=S)NC1c1cccc([N+](=O)[O-])c1 (stereo not given)	0.6%	-14%	-17%	-3
Nc1ccc(N2CCN(c3ccccc3)CC2)c(F)c1	-0.1%	-27%	4%	0
Cc1cc(Br)ccc1NC(=O)CCN1C(=O)c2ccncc2C1=O	6.1%	0%	-18%	7
CC(=O)Nc1ccc(NC(=O)C2CC(=O)N(Cc3ccccc3)C2)cc1 (stereo not given)	-0.1%	4%	4%	-7
CCN(CC(=O)NCc1ccc(Cl)cc1)C(=O)/C=C/c1ccc(Cl)c([N+](=O)[O-])c1	1.3%	0%	4%	.
COc1ccc(CNC(=O)COC(=O)CCS(=O)(=O)c2ccc(C)cc2)cc1OC	0.0%	.	-2%	.
C#CC[N+](C)(C)CCCCCCCCCCCC	3.3%	?	-13%	3
COC(C[C@@H](O)C[C@@H](O)[C@@H](C)OCc1ccccc1)OC	1.3%	.	30%	.
C=C1N(c2ccc(Cl)cc2)C(=O)OC1(C)C	1.9%	0%	5%	2
CCc1cccc2c(C(=O)COC(=O)/C=C/c3ccccc3OC)c[nH]c12	2.8%	-4%	-11%	6
COc1cccc(OCC(=O)NNC(=O)c2ccc3ccccc3c2O)c1	-5.9%	-2%	-9%	.
CC(Sc1nc(N)cc(=O)[nH]1)C(=O)NC1CCCCC1 (stereo not given)	-0.4%	0%	1%	-6
COc1ccc(CCNC(=O)CC(C)S(=O)(=O)c2ccc3c(c2)NC(=O)CO3)cc1OC (stereo not given)	-2.4%	-1%	-2%	.
CCC(CC)NC(=O)c1cccc(Oc2ccccc2)c1	-3.2%	-13%	-18%	-1
N/C(=N\OC(=O)CCN1C(=O)c2ccccc2C1=O)c1ccccn1	0.0%	-3%	-1%	8

The list continues.
SMILES	Rango complex inh	miR-21 FLuc	Rango release inh	GLA inh pH 4.5
Cc1nnc(SCC(=O)N2CCOCC2)n1C	5.7%	-4%	-13%	0
COc1ccc(Cc2nc(C(=O)Nc3ccc(OC)cc3)cs2)cc1	3.8%	-3%	-2%	-12
O=C(CCc1ccccc1)Nc1ccc(NC(=O)c2ccco2)nc1	-2.8%	-19%	-2%	6
Cc1ccc(S(=O)(=O)NC(=O)c2cc(C)n(-c3cc(S(=O)(=O)N4CCOCC4)ccc3N3CCCC3)c2C)cc1	-3.3%	-3%	-6%	-3
COc1ccccc1CCNC(=O)C(=O)NCCC1CCCCN1S(=O)(=O)c1ccccc1 (stereo not given)	0.3%	.	11%	.
O=C(NCCC1=CCCCC1)NC1CCCCC1	6.2%	-48%	-12%	-5
CCCCCn1c(SCC(=O)OCC)nc2cc(C(=O)N3CCC(C(N)=O)CC3)ccc2c1=O	0.0%	-5%	4%	-2
Cc1ccc(CNC(=O)CN2C(=O)NC3(CCCC3)C2=O)cc1	1.8%	.	-3%	.
Cc1nc(NCc2ccco2)c2cn[nH]c2n1	0.6%	.	0%	.
O=c1c2ccccc2c(-c2n[nH]c(=S)o2)nn1Cc1ccccc1	0.4%	-17%	-2%	-17
Cc1cccc(C)c1NC(=O)CC(C)c1ccccc1 (stereo not given)	-3.8%	-1%	?	.
Nc1cc(Oc2ccc(Cl)cc2Cl)nc(N)n1	5.2%	-13%	33%	.
N#Cc1c(N2CCOCC2)nc(N)c2c(N)nc3c(c12)CC(CCl)O3 (stereo not given)	-2.1%	0%	-19%	5
O=C(CSc1nc2ccccc2n1CCc1ccccc1)c1ccc(O)c(O)c1	-9.3%	-14%	3%	-3
Cc1cc(C)cc(C(=O)NCC(=O)OCC(=O)N2CCN(S(=O)(=O)c3ccc4ccccc4c3)CC2)c1	-2.2%	1%	16%	-3
CCN(CC)S(=O)(=O)c1ccc2c(c1)nc(SC(C)C(N)=O)n2-c1ccc(OC)cc1 (stereo not given)	-2.5%	-1%	1%	-2
O=[N+]([O-])c1cccc2ccc(N3CCOCC3)nc12	-4.3%	-28%	5%	.
COc1ccc(CNCCNC(=O)c2nonc2N)cc1OC	3.4%	-9%	-4%	-2
CC(=O)c1ccc(NC(=O)CN2CCCCCC2)cc1	1.1%	-7%	-3%	.
C=CCNC(=O)/C(C#N)=C/c1c(N2CCCCCC2)nc2ccccn2c1=O	-0.8%	0%	-14%	.
Nc1ccc(C2(c3ccc(N)cc3)OC(=O)c3ccccc32)cc1	0.4%	-2%	6%	.
CCC(C)(C)C1CCC(=NNc2nc3ccccc3[nH]2)CC1 (stereo not given)	-1.6%	-1%	2%	4
Cc1ccc2nc3c(cc2c1)CN(Cc1ccco1)C(=NCC1CCCO1)S3 (stereo not given)	-1.2%	-1%	-8%	-10
Cn1c(CNS(=O)(=O)c2cccc(Cl)c2)cc(=O)n(C)c1=O	?	0%	0%	.
O=C(Nc1ccc(N2CCN(c3ncccc3C(F)(F)F)CC2)nc1)c1cccs1	0.0%	?	7%	-19

7 successive compounds from above, quoted:
SMILES	Rango complex inh	miR-21 FLuc	Rango release inh	GLA inh pH 4.5
CC(=O)c1ccc(NC(=O)CN2CCCCCC2)cc1	1.1%	-7%	-3%	.
C=CCNC(=O)/C(C#N)=C/c1c(N2CCCCCC2)nc2ccccn2c1=O	-0.8%	0%	-14%	.
Nc1ccc(C2(c3ccc(N)cc3)OC(=O)c3ccccc32)cc1	0.4%	-2%	6%	.
CCC(C)(C)C1CCC(=NNc2nc3ccccc3[nH]2)CC1 (stereo not given)	-1.6%	-1%	2%	4
Cc1ccc2nc3c(cc2c1)CN(Cc1ccco1)C(=NCC1CCCO1)S3 (stereo not given)	-1.2%	-1%	-8%	-10
Cn1c(CNS(=O)(=O)c2cccc(Cl)c2)cc(=O)n(C)c1=O	?	0%	0%	.
O=C(Nc1ccc(N2CCN(c3ncccc3C(F)(F)F)CC2)nc1)c1cccs1	0.0%	?	7%	-19

The list goes on.
SMILES	Rango complex inh	miR-21 FLuc	Rango release inh	GLA inh pH 4.5
Cc1csc2nc(COC(=O)CNC(=O)c3ccc(Cl)cc3)cc(=O)n12	-0.1%	.	-12%	.
O=C(/C=C/c1ccccc1)Nn1cnc2ccccc2c1=O	2.4%	-36%	-18%	3
CC(=O)Nc1cccc(C(=O)N/N=C/c2ccc(F)cc2)c1	5.8%	-54%	0%	-13
O=C(Cc1ccccc1)NCCS(=O)c1ccc(Cl)cc1 (stereo not given)	-2.0%	-7%	12%	-3
Cc1nc(C(=O)NCc2ccccc2)sc1C1(C)CC(c2cccc([N+](=O)[O-])c2)=NO1 (stereo not given)	1.9%	5%	-6%	11
COc1cc2c(=O)n(CCC(=O)NCC3CCCO3)c(=O)n(CC(=O)Nc3ccc(C)c(C)c3)c2cc1OC (stereo not given)	-3.3%	1%&9%	-8%	.
CCOc1ccc(/C=C/C(=O)c2cc(Br)ccc(=O)c2O)cc1	0.1%	?	-24%	-11
O=C(CN1CCN(c2ccc(Cl)cc2[N+](=O)[O-])CC1)N1CCOCC1	-1.7%	-4%	10%	-5
O=C(O)c1cc([N+](=O)[O-])cc([N+](=O)[O-])c1N1CCN(c2cccc(C(F)(F)F)c2)CC1	3.7%	15%	8%	.
CCOC(=O)CC(NC(=O)Cn1nnc(-c2ccccc2F)n1)c1ccc(OC)cc1 (stereo not given)	0.8%	0%	-5%	-8
CCOC(=O)NC(=O)/C(C#N)=C/c1ccc(N(C)C)cc1	?	-30%	?	-6
COc1ccc(N=C2SC(CC(=O)Nc3ccccc3)C(=O)N2CCN2CCOCC2)cc1 (stereo not given)	-1.1%	3%	-5%	-4
COc1cc(C)c(S(=O)(=O)NOCc2ccccc2)c(C)c1C	4.1%	13%	1%	.
CC1CCCCC1NC(=O)Cn1nnc(-c2ccc(Cl)cc2)n1 (stereo not given)	3.0%	-6%	-1%	5
NC(=O)CCN(C(=O)c1cccc(S(=O)(=O)N2CCc3ccccc32)c1)c1ccccc1	3.9%	.	8%	.
Fc1ccc(NCc2nnc(SCc3ccccc3)o2)cc1	2.0%	-15%	31%	?
Cc1nn(-c2ccccc2)c2c1C(c1c(C)[nH]c(C#N)c1C)C(C#N)=C(N)O2 (stereo not given)	-1.7%	1%	3%	-5
CN(C)CCN=c1cc(-c2ccccc2)oc2ccc(Cl)cc12	-4.6%	-57%	6%	-3
CC(=O)N1c2ccc(S(=O)(=O)NCCC(=O)N(C)C3CCCCC3)cc2CC1C (stereo not given)	-0.3%	-2%	5%	.
N#CC1(NC(=O)COC(=O)c2cc([N+](=O)[O-])ccc2N2CCCC2)CCCCC1	2.0%	.	0%	.
N#Cc1cc([N+](=O)[O-])ccc1NC(=O)CSc1n[nH]c(=O)n1C1CC1	3.8%	.	?	.
CC(C)CNS(=O)(=O)c1ccc(S(=O)(=O)NC2CCOC(C)(C)C2)cc1 (stereo not given)	0.2%	.	3%	.
CCC1Oc2ccc(C)cc2N(Cc2cccc(C)c2)C1=O (stereo not given)	-0.7%	-15%	-7%	-5
Cc1cc(-c2ccccc2C(=O)O)on1	-0.1%	-4%	17%	-14
CCOC(=O)CNc1nc(Cl)nc(N2CCCCC2)n1	2.4%	-1%	2%	-19

Remaining list, next part.
SMILES	Rango complex inh	miR-21 FLuc	Rango release inh	GLA inh pH 4.5
CCOC(=O)N1CCN(C(=O)/C(=C/c2ccc(F)cc2)NC(=O)c2ccccc2)CC1	-1.5%	0%	6%	.
Cc1ccc(S(=O)(=O)N2CCCCC2)cc1NC(=O)CSCC(=O)O	-0.3%	-6%	11%	1
O=C(O)c1cc(-c2ccccc2Cl)n(-c2cccc(Cl)c2)n1	-0.9%	-10%	0%	.
O=C(NCC1CCCN(Cc2cccc(F)c2)C1)c1cccc2ccccc12 (stereo not given)	0.1%	5%	0%	.
COc1ccc(N2CCN(C3=CC(=O)N(c4cccc(Cl)c4)C3=O)CC2)cc1	14%	0%	10%	-11
C#CCOCCOCCOCCNc1nc(N2CCOCC2)nc(N2CCN(C(=O)CCCCCCCCCCNC(=O)[C@@H]([C@H](C)CC)n3cc(CCCCCN)nn3)CC2)n1	-0.2%	.	-6%	.
COC(=O)c1ccc(CN2[C@H](C(=O)OC)C[C@@]3(O)[C@H](O)[C@H](O)[C@H](O)C[C@@H]23)cc1	-0.1%	0%	-8%	10&3
COCCN1Cc2cccc(C(=O)Nc3cccnc3)c2C1=O	-2.6%	-3%	17%	-10
CCOC(=O)c1ccc(Nc2cc(C)nc3nc(C)nn23)cc1	3.6%	-1%	-6%	5
CSc1ccc(/C=C/C(=O)OCC(=O)N2CCN(c3ccccc3)CC2)cc1	-1.7%	.	5%	.

Some of these compounds in order of count of non-hydrogen atoms, low to high.
SMILES	Rango complex inh	miR-21 FLuc	Rango release inh	GLA inh pH 4.5
C=C1N(c2ccc(Cl)cc2)C(=O)OC1(C)C	1.9%	0%	5%	2
CCC(CC)NC(=O)c1cccc(Oc2ccccc2)c1	-3.2%	-13%	-18%	-1
Cn1c(CNS(=O)(=O)c2cccc(Cl)c2)cc(=O)n(C)c1=O	?	0%	0%	.
